# Compound activity from PubChem BioAssay.
# CCR6 antagonist = CCR6 (human) receptor antagonism; AID 493098; CHO-K1 CCR6 PathHunter beta-arrestin, luminescence, CCL20-stimulated; P51684; inhibition, % at 20 µM; actives 0.49% (n = 340,000);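 active = compounds whose inhibition of the agonist-driven luminescence signal at 20 µM reaches about 50%, limit read from the data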;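 note: cells stimulated with CCL20 at 14 nM final; plate controls were DMSO with CCL20 for no effect and DMSO without agonist for full effect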
# UBC13 inh = blocks human UBC13 polyubiquitin chain formation. inhibition, % at 20 µM. TR-FRET. actives 0.47% (n = 330,000). P61088; in the data active = inhibition above about 45%, passing the limit was not always enough
# EBI2 block = EBI2 (human) antagonism; actives 0.81% (n = 360,000); P32249; EBI2 beta-arrestin recruitment, luminescence, 7a,25-OHC stimulated; inhibition, % at 5 µM; in the data active = inhibition above about 38%;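 note: enzyme fragment complementation signal reports receptor beta-arrestin coupling in cells; 0% = agonist plus DMSO wells and 100% = wells without agonist; some results beyond the cut were filed as inactive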
# * marks the source's active call; other numbers are inactive results; x = no result given. Only part of the results is shown; the hit share may differ from the screen's.
CCR6 antagonist	UBC13 inh	EBI2 block	Compound
4	19	11	OCCN(CCO)c1nc(N2CCCCC2)c2nc(N(CCO)CCO)nc(N3CCCCC3)c2n1
2	-9	-6	CCn1cc(C(=O)O)c(=O)c2ccc(C)nc21
0	17	-8	NC1C2CN(c3nc4c(cc3F)c(=O)c(C(=O)O)cn4-c3ccc(F)cc3F)CC12 (stereo unspecified)
1	4	-3	Nc1nc2c(ncn2COCCO)c(=O)[nH]1
x	6	x	Nc1ccn([C@@H]2CS[C@H](CO)O2)c(=O)n1
10	-8	-7	C[C@H]1[C@H](NC(=O)C(=NOC(C)(C)C(=O)O)c2csc(N)n2)C(=O)N1S(=O)(=O)O
4	8	-1	C[N+]1(C)CC[C@H](OC(=O)[C@@](O)(c2ccccc2)C2CCCC2)C1
5	-10	-2	CCN(CC)CCNC(=O)c1ccc(N)cc1

# An excerpt from above in order of the EBI2 block value, lowest first.
CCR6 antagonist	UBC13 inh	EBI2 block	Compound
10	-8	-7	C[C@H]1[C@H](NC(=O)C(=NOC(C)(C)C(=O)O)c2csc(N)n2)C(=O)N1S(=O)(=O)O
1	4	-3	Nc1nc2c(ncn2COCCO)c(=O)[nH]1
5	-10	-2	CCN(CC)CCNC(=O)c1ccc(N)cc1

# An excerpt of these results, tab-delimited:
Molecule	CCR6 antagonist	UBC13 inh	EBI2 block
Nc1nc2c(ncn2COCCO)c(=O)[nH]1	1	4	-3
Nc1ccn([C@@H]2CS[C@H](CO)O2)c(=O)n1	x	6	x
